TRPV1 potentiator – HTS Assay for Compounds that Act as Potentiators of the Vanilloid Receptor 1 | TRPV1-expressing cells, Fluo-8 calcium influx, capsaicin EC20 potentiation; host cell line not named in the record; control for the full effect not named in the record | potentiation, % at 8.33 µM | actives 0.02% (n = 320,000); active means potentiation above 80%; inconclusive means 30% to 80%; inactive means below 30%; further: 0% is about no effect
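TRPV1-expressing cells were cultured overnight at 35.5C and loaded with Fluo-8 calcium dye for 40 to 90 min at room temperature. After a 10 s baseline, compound was added and calcium influx was read kinetically for 3 min (ex 480/em 520 nm).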
Menin-MLL FL inh – qHTS Assay for Inhibitors Targeting the Menin-MLL Interaction in MLL Related Leukemias: Competition With Fluorescein Labeled MLL-derived Peptide; Fluorescence polarization, fluorescein-MLL peptide displacement from menin; FP activity change, % at 61.4 µM; 290,000 tested, under 10 active; AID 1766, 2009; inconclusive = falling polarisation curve, or a change in total fluorescence; inactive = total fluorescence flat and polarisation flat or rising; no compound was filed as active; the % refers to the polarisation; negative = inhibition;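 further: % of control where 0% means no effect; inhibitors lower the polarisation; unlabelled MLL peptide was the positive control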
TRPML1 inh – qHTS for Inhibitors of the Human Mucolipin Transient Receptor Potential 1 (TRPML1) | Mucolipin-1 (Homo sapiens), Q9GZU1 | activity change, negative = inhibition, % (test concentration not listed) | actives 0.02% (n = 390,000) | TRPML1-inducible cells, Ca2+ dye fluorescence, FDSS; hits give low values; inhibition of EC80 agonist-evoked calcium signal; in the data active means activity change below about -50%; inconclusive means about -30% to -50%; inactive means above about -30%;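 further: stimulus is agonist 54-4 at its EC80 concentration; on the % scale 0 is the no-effect control and ±100 the full control effect; compound concentration not given in the record; the text of the record puts the active cut at -80%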
Target sequence (Q9GZU1 whole entry, looked up): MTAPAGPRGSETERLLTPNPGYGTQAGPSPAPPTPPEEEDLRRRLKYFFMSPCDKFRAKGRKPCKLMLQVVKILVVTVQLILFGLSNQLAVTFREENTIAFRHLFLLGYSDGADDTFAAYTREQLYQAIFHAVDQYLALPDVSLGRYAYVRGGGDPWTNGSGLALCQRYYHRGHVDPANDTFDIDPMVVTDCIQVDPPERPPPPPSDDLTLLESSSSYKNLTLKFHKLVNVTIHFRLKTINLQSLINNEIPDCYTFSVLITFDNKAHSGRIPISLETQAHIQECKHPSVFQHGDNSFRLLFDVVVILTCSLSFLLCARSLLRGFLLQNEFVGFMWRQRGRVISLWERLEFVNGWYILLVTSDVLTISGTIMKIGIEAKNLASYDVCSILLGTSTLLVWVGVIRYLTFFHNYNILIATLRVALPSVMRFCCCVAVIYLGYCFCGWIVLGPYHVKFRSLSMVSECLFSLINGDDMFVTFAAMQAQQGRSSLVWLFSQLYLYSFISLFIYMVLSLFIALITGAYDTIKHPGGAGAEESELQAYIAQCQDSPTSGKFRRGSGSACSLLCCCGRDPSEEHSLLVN
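Calcium fluorescence in TRPML1-DL cells induced overnight with Tet: a 110 s read after compound pin addition, then a 110 s antagonist read after challenge with 54-4 at 4 uM final (EC80).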
gsp ag – qHTS for Agonist of gsp, the Etiologic Mutation Responsible for Fibrous Dysplasia/McCune-Albright Syndrome: qHTS | AID 624287, 2012 | Potency, µM (titrated, usually from 76.9 µM), without a hit: top-dose activation (cAMP increase), usual class: activators | actives 0.13% (n = 340,000) | gsp mutant cells, cAMP HTRF, 30 min; control for the full effect not named in the record; active = well fitted activation curve with a large enough effect; inconclusive = small, poorly fitted or top-dose-only effect, or another doubt; inactive = no such curve, though single readings can be large or run the other way; cell line not stated here;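 further: phosphodiesterase inhibitor Ro 20-1724 added with compounds to block cAMP breakdown; potency means the concentration at half of the fitted maximal effect; nearly all actives have a fitted effect of over 60% in size; about a fifth of the inactives were tested at one dose only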
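Cells in DMEM/10% FBS with G418 were pretreated with compounds in DMSO plus […] (300 uM stock) for 30 min at 37C. cAMP was measured by HTRF (cAMP-d2 plus anti-cAMP antibody-K) after 30 min at room temperature.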
gsp antag – qHTS for Antagonists of gsp, the Etiologic Mutation Responsible for Fibrous Dysplasia/McCune-Albright Syndrome: qHTS; gsp-mutant cells, cAMP HTRF, 30 min; control for the full effect not named in the record; Potency, µM (series often up to 76.9 µM), inactives show top-dose activity change, negative = inhibition, hits mostly inhibitors; actives 0.4% (n = 340,000); AID 624288, 2012; active = falling curve of any shape with a large fitted effect; inconclusive = falling curve, mostly with a smaller effect; inactive = flat or rising curve; cell line not stated here;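 further: intracellular cAMP measured with PDE inhibitor Ro 20-1724 present during compound exposure; potency means the concentration at half of the fitted maximal effect; on the % scale 0 is the no-effect control and ±100 the full control effect; nearly all actives have a fitted effect of over 65% in size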
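HTRF cAMP read-out (cAMP-d2 plus anti-cAMP antibody-K in lysis buffer, 30 min RT). Before lysis, cells are exposed to compounds with […] for 30 min at 37C in DPBS containing Ca/Mg, BSA and Tween 20.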
Sfp inh – qHTS Assay for Inhibitors of Bacillus subtilis Sfp phosphopantetheinyl transferase (PPTase). 4'-phosphopantetheinyl transferase ffp (Bacillus subtilis), Q9F4F7. Biochemical Sfp PPTase activity, qHTS. Potency, µM, without a hit: max response, negative = inhibition, actives largely listed as inhibitors. actives 3.5% (n = 310,000). AID 1490, 2009; active means well fitted inhibition curve with a large enough effect; inconclusive means small, poorly fitted or top-dose-only effect, or another doubt; inactive means no such curve, though single readings can be large or run the other way;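 further: the enzyme is Sfp with the accession as filed and its product quenches rhodamine fluorescence; potency means the concentration at half of the fitted maximal effect; 0% = enzyme reaction without inhibitor and -100% = no enzyme wells; top concentration of the series not given in the record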
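Fluorescence-quenching assay: 15 nM Sfp-PPTase preincubated 15 min at room temperature with compound, then 5 uM rhodamine-CoA and 12.5 uM BHQ-2-labelled YbbR peptide added. Fluorescence (ex 525/em 598 nm) read at start and after 30 min; difference gives rate.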
ClpP mod – qHTS Assay for Activators of ClpP | actives 1.9% (n = 340,000) | purified B. subtilis ClpP, FRET peptide cleavage, 20 min | Potency, µM (top dose mostly 57.5 µM), inactives show at the top dose activity change, negative = active; active = well fitted falling curve with a large enough effect; inconclusive = small, poorly fitted or top-dose-only effect; inactive = no such curve, though single readings can be large or run the other way; further: potency means the concentration at half of the fitted maximal effect; the source files actives as falling curves though it sought activators and does not explain the sign; nearly all actives have a fitted effect of over 65% in size; many hits overshoot -100%
Target sequence (P80244 whole entry, looked up): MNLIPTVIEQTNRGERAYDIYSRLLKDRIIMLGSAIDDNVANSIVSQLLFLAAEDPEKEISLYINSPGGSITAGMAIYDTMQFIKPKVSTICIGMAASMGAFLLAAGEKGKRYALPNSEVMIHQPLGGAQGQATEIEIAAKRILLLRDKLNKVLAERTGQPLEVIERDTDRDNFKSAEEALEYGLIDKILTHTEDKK
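ClpP 10 microg/mL final, pH 8 Tris/KCl buffer with BSA, glycerol, Tween-20; compound pinned in; FRET-FV substrate; RT 20 min; Ex320/Em430; ΔFRET vs ADEP 5.8 microM, DMSO, no enzyme.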
Numbers without * were called inactive; ? = inconclusive; / = not tested or not shown; & = joins results of further samples; [ ] = dose if it differs, or a comment. This is a random part of the collection; overall some 4.9% were active at least once.

SMILES	TRPV1 potentiator	Menin-MLL FL inh	TRPML1 inh	gsp ag	gsp antag	Sfp inh	ClpP mod
CC(=O)NC(CCS(C)(=O)=O)C(=O)Nc1cccc(Cl)c1Cl (stereo not given)	14	-0.2	8	-1%	5%	12%	-3.9%
Cc1ccc(-c2nc3cccnc3s2)cc1NS(C)(=O)=O	7	1.6	2	16%	5%	4%	-22%
Cc1ccc(NC(=O)c2ncn(CCCNCC3CCCO3)n2)cc1C (stereo not given)	/	/	-5	/	9%	/	-2.6%
COc1ccc(-c2nc(C(N)=O)c3[nH]c(=O)n(-c4cccc(C)c4)c3n2)c(OC)c1	?	8.8	-4	-33%	-1%	-20%	-21%
O=C1C=C(c2ccccc2)CC(/C=C/c2ccccc2)C1 (stereo not given)	0	-1.0	-4	-3%	-3%	-20%	1.3%
CC(O)c1nc2ccccc2n1C/C=C/c1ccccc1 (stereo not given)	-14	6.2	-2	-22%	5%	29%	-2.6%
O=C(CC1CS(=O)(=O)CC1CC(=O)Oc1ccccc1F)Oc1ccccc1F (stereo not given)	2	1.5	16	-13%	-1%	4%	-1.2%
O=c1c2cc(Cl)ccc2[nH]c(=S)n1Cc1ccccn1	4	1.6	-28	?	-7%	3%	2.9%
CN(C)S(=O)(=O)c1ccc(-c2csc(-c3cccnc3)n2)cc1	-1	0.2	20	11%[15.4 µM]	-2%	18%	-8.6%
CC(c1nnc(Sc2nnnn2-c2ccccc2)n1-c1ccc(F)cc1)N(C)C (stereo not given)	3	4.7	-8	-29%	13%	25%	1.4%
Cc1ccc(S(=O)(=O)c2nc(S(C)(=O)=O)sc2N2CC(C)OC(C)C2)cc1 (stereo not given)	-5	/	12	-11%	1%	15%	-0.6%
COc1ccc(-c2cc(C(F)(F)F)c(C#N)c(SCC(=O)O)n2)cc1OC	-9	7.7	/	/	/	?	/

Reprinted at random: 2 entries already listed
SMILES	TRPV1 potentiator	Menin-MLL FL inh	TRPML1 inh	gsp ag	gsp antag	Sfp inh	ClpP mod
COc1ccc(-c2cc(C(F)(F)F)c(C#N)c(SCC(=O)O)n2)cc1OC	-9	7.7	/	/	/	?	/
Cc1ccc(NC(=O)c2ncn(CCCNCC3CCCO3)n2)cc1C (stereo not given)	/	/	-5	/	9%	/	-2.6%

Later entries
SMILES	TRPV1 potentiator	Menin-MLL FL inh	TRPML1 inh	gsp ag	gsp antag	Sfp inh	ClpP mod
CCOC(=O)c1cc(-c2ccccc2C)nn1Cc1cc(C)no1	?	/	0	/	-16%	/	0.3%
Cc1sc2ncnc(OCC(=O)N3CCN(S(=O)(=O)c4ccccc4)CC3)c2c1C	1	-1.1	7	3%	-15%	5%	-1.3%
CSc1ccccc1OCc1cc(C(=O)N(C)Cc2ccc3nsnc3c2)no1	4	-7.2	32	-8%[15.4 µM]	-6%	-2%	-3.7%
COc1ccc(S(=O)(=O)N2CCCN(C)CC2)cc1	5	1.5	13	-6%[15.4 µM]	7%	11%	/
CC(=NCCc1ccccc1)C1=C(O)C(c2ccccc2)OC1=O (stereo not given)	-1	1.3	-3	?	1%	17%	-0.6%
COC(=O)c1cc2c([nH]c1=O)CCCC2=O	/	/	6	/	-2%	/	4.6%
COC(=O)c1cccc(C23CC4(C2)[C@H](CN(Cc2cccnc2)[C@@H]4c2ccccc2)C3c2ccc(Cl)nc2)c1 (stereo not given in full)	-17	0.9&2.1	87	/	-20%	1%&-15%	-0.4%
Cc1ccc(C(=O)CSc2nc(C)cc(=O)[nH]2)cc1	-10	5.3	-8	5%	-11%	1%	0.9%
CN(CCC#N)C(=O)COC(=O)/C=C/c1cccs1	2	0.4	-20	0%[15.4 µM]	4%	12%	/
CCC(C(=O)Nc1cccnc1)c1ccccc1 (stereo not given)	0	0.2	2	?	10%	2%	0.8%
O=C(O)c1cccc(Nc2ncnc3ccccc23)c1	3	6.9	-2	34%	4%	14%	-3.0%
O=C1c2cccc3c(O)ccc(c23)C(=O)N1Cc1ccco1	-7	?	-19	?	-5%	7.1µM*	-1.0%

SMILES	TRPV1 potentiator	Menin-MLL FL inh	TRPML1 inh	gsp ag	gsp antag	Sfp inh	ClpP mod
O=c1[nH]ncc2c3ccccc3n(Cc3cccc(Cl)c3)c12	-15	?	8	-21%[15.4 µM]	6%	18%	/
CCCCC[C@H]1CN(Cc2ccccc2)C(=O)[C@@H]1CC(=O)NCc1ccc(OC)cc1	-4	-0.9	19	/	-14%	-6%	4.5%&2.0%
CCOCC(=O)N1CCC(Cc2ccccc2)CC1	0	1.2	6	1%[15.4 µM]	10%	12%	/
O=[N+]([O-])c1cccc(-c2ccc(CN3CCCCC3)o2)c1	2	-1.4	28	-8%[15.4 µM]	7%	2%	0.5%
O=S(=O)(NCCc1csc(-c2cccnc2)n1)c1cc(F)ccc1F	2	-1.3	-4	?	-18%	19%	-26%
Cc1ccc(S(=O)(=O)N2CCOC2CNC(=O)C(=O)NCc2ccc3c(c2)OCO3)cc1 (stereo not given)	5	/	9	-65%[inhibitor]	7%	3%	-0.2%
CC(=O)C1=C(O)C(=O)N(CCc2c[nH]c3ccccc23)C1c1cccc(O)c1 (stereo not given)	1	1.8	-10	5%	2%	-4%	-2.0%
CCn1ncc(/C=C/C(=O)NCc2cn(C)nc2C)c1C	-5	0.9	30	18%	-2%	6%	0.9%
O=C(CCCc1ccccc1)N1CCN(C2CCCCC2)CC1	-14	-4.7	5	0%	1%	8%	-2.6%
CC(C)(C)NC(=O)NC(=O)COC(=O)c1cccc(F)c1	-6	-0.4	9	4%	1%	6%	/
COc1cccc(CN(C)CC(=O)NCc2ccc(C)cc2)c1	-9	2.2	0	16%	8%	-21%	/
CC=CC1OCC(CC)C(CCC)O1 (stereo not given)	/	/	9	-1%	-14%	/	-1.4%

SMILES	TRPV1 potentiator	Menin-MLL FL inh	TRPML1 inh	gsp ag	gsp antag	Sfp inh	ClpP mod
CC1CCCCN1S(=O)(=O)c1ccc(S(=O)(=O)N(Cc2ccccc2)Cc2ccco2)cc1 (stereo not given)	-1	1.3	-10	-7%	1%	12%	0.2%
Cc1ccc(C)c(SCC(=O)OCC(=O)c2ccco2)c1	-13	0.9	-1	-3%	-5%	-4%	0.5%
CCn1c(=O)n(CC)c2cc(N3CCCC3)c(NC(=O)c3ccccc3OC)cc21	-6	1.1	22	?	-29%	-19%	-1.2%
CN(C(=O)c1cccc(NC(=O)Cc2cccc(NC(=O)C3CCN(C(=O)c4ccccc4)CC3)c2)c1)C1CC1	/	/	3	/	13%	/	4.4%
CCOC(=O)c1sc(NC(=O)c2cc3n(n2)C(C(F)(F)F)CC(c2ccccc2)N3)c(C(=O)OCC)c1C (stereo not given)	-5	?	6	-8%	9%	6%	-1.7%
COc1cc2c(cc1O)C(Cc1ccc(O)cc1)[N+](C)([O-])CC2 (stereo not given)	-12	3.3	1	/	4%	1%	-8.7%
O=C(NCCC1=CCCCC1)C(=O)NCC(c1ccco1)N1CCN(c2ccccc2)CC1 (stereo not given)	?	-0.1	15	-4%[15.4 µM]	15%	11%	4.9%
CC(=O)N1CCN(c2ccccc2NC(=O)c2ccco2)CC1	-1	0.9	19	?	-20%	9%	-1.6%
O=C1N[C@@H](Cc2ccccc2)COC(=O)[C@H](Cc2ccc(F)cc2)C/C=C\C[C@@H]1CC(=O)N(CCO)Cc1ccccc1	/	/	-9	/	-23%	/	2.0%
COc1ccc(CNc2oc(C)nc2C#N)cc1	-3	-1.6	-6	2%	-3%	15%	-1.5%
Cc1c(NS(=O)(=O)c2cc(C(=O)NCc3cccc(Cl)c3)ccc2Cl)c(=O)n(-c2ccccc2)n1C	/	/	-8	26%	?	/	-3.2%
O=C(NCc1ccc2c(c1)OCO2)c1c(-c2ccsc2)sc2ccccc12	/	/	36	-43%[inhibitor]	?	/	?
COc1ccc(Cl)cc1N=Cc1c(O)c2ccccc2oc1=O	12	-4.0	1	10%[15.4 µM]	8%	9%	-1.6%
O=C(CSc1nnc(-c2ccco2)n1-c1ccccc1)NCC1CCCO1 (stereo not given)	9	3.3	2	29%	6%	12%	32µM*
O=C(CSc1nnnn1C1CCCCC1)N1CCN(C(=O)c2ccco2)CC1	-4	1.1	-5	14%	-3%	4%	-0.1%

Entries from the list above that contain an aryl methoxy group:
SMILES	TRPV1 potentiator	Menin-MLL FL inh	TRPML1 inh	gsp ag	gsp antag	Sfp inh	ClpP mod
COc1ccc(-c2nc(C(N)=O)c3[nH]c(=O)n(-c4cccc(C)c4)c3n2)c(OC)c1	?	8.8	-4	-33%	-1%	-20%	-21%
COc1ccc(-c2cc(C(F)(F)F)c(C#N)c(SCC(=O)O)n2)cc1OC	-9	7.7	/	/	/	?	/
COc1ccc(S(=O)(=O)N2CCCN(C)CC2)cc1	5	1.5	13	-6%[15.4 µM]	7%	11%	/
CCCCC[C@H]1CN(Cc2ccccc2)C(=O)[C@@H]1CC(=O)NCc1ccc(OC)cc1	-4	-0.9	19	/	-14%	-6%	4.5%&2.0%
COc1cccc(CN(C)CC(=O)NCc2ccc(C)cc2)c1	-9	2.2	0	16%	8%	-21%	/
CCn1c(=O)n(CC)c2cc(N3CCCC3)c(NC(=O)c3ccccc3OC)cc21	-6	1.1	22	?	-29%	-19%	-1.2%
COc1cc2c(cc1O)C(Cc1ccc(O)cc1)[N+](C)([O-])CC2 (stereo not given)	-12	3.3	1	/	4%	1%	-8.7%
COc1ccc(CNc2oc(C)nc2C#N)cc1	-3	-1.6	-6	2%	-3%	15%	-1.5%
COc1ccc(Cl)cc1N=Cc1c(O)c2ccccc2oc1=O	12	-4.0	1	10%[15.4 µM]	8%	9%	-1.6%

Screening results from PubChem.
